D2 ag = Beta-Arrestin HTS for Positive Allosteric Modulators of the Human D2 Dopamine Receptor: Agonists | D(2) dopamine receptor (Homo sapiens), P14416 | DiscoveRx PathHunter D2 beta-arrestin, luminescence, 90 min; 100% = 57 uM dopamine signal | activation, % (test concentration not listed) | 360,000 compounds, 0.084% hits | AID 624465, 2012; in the data active = activation above about 40%; inconclusive = about 15% to 40%; inactive = below about 15%; further: compound concentration not given in the record; the text of the record calls up to 30% inactive
Target sequence (P14416 whole entry, looked up): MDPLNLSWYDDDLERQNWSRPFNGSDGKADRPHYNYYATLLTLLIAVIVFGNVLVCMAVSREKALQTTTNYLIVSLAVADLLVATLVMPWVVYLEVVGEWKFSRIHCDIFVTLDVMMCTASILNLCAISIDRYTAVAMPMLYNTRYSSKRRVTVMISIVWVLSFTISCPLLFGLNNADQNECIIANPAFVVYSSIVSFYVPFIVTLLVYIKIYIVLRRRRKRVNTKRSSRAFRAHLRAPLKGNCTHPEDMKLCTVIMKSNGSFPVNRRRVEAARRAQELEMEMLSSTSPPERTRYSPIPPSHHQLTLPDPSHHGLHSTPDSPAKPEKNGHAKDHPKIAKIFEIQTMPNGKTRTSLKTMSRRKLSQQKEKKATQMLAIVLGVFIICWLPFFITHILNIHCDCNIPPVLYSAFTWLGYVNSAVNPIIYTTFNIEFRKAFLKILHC
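Agonist mode: compounds alone added to overnight-plated D2 PathHunter cells for 90 min at 37 C, with 57 uM final dopamine (EC100) defining full response. Beta-arrestin recruitment detected by chemiluminescent reagent, read after 1 h at ambient temperature.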
TRPML1 blocker = qHTS for Inhibitors of the Human Mucolipin Transient Receptor Potential 1 (TRPML1) | Mucolipin-1 (Homo sapiens), Q9GZU1 | TRPML1-inducible cells, Ca2+ dye fluorescence, FDSS; stronger effect = lower value; inhibition of EC80 agonist-evoked calcium signal | activity change, negative = inhibition, % (concentration not given with the values) | 390,000 compounds, 0.02% hits | AID 624415, 2012; in the data active means activity change below about -50%; inconclusive means about -30% to -50%; inactive means above about -30%;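 further: stimulus is agonist 54-4 at its EC80 concentration; on the % scale 0 is the no-effect control and ±100 the full control effect; the text of the record puts the active cut at -80%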
Target sequence (Q9GZU1 whole entry, looked up): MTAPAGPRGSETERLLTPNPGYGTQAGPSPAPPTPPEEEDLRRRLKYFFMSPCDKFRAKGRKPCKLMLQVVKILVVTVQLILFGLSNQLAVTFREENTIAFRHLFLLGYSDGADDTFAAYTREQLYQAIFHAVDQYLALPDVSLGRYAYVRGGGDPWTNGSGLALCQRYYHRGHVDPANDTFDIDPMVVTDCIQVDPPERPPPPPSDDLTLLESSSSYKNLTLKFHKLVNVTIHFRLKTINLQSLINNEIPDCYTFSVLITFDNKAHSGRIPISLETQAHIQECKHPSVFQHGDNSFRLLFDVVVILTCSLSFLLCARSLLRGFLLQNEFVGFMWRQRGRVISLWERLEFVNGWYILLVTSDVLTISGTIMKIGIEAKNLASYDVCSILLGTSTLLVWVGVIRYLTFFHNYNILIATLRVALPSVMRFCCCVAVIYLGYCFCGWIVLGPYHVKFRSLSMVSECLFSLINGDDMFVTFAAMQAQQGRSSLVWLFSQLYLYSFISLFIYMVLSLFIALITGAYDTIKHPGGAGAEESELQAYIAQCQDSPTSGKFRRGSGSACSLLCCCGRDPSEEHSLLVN
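Calcium fluorescence in TRPML1-DL cells induced overnight with Tet: a 110 s read after compound pin addition, then a 110 s antagonist read after challenge with 54-4 at 4 uM final (EC80).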
Six1-Eya2 inh = qHTS Assay for Inhibitors of the Six1/Eya2 Interaction; Homeobox protein SIX1 (Homo sapiens) + Protein phosphatase EYA2 (Homo sapiens), …; AlphaScreen GST-Six1/His-Eya2 binding, biochemical; stronger effect = lower value; control for the full effect not named in the record; activity change, % (test concentration not listed); 360,000 compounds, 0.56% hits; AID 651725, 2012; in the data active = activity change below about -65%; inconclusive = about -30% to -65%; inactive = above about -30%; further: on the % scale 0 is the no-effect control and ±100 the full control effect
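AlphaScreen luminescence read after one hour at 37 °C in darkness. Pin-transferred compounds met GST-Six1 and His-Eya2 protein (5X stock 250 nM/500 nM) plus glutathione donor and Ni-chelate acceptor beads (5X, 50 ug/mL).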
TRPML1 agonist = qHTS for Agonists of the Human Mucolipin Transient Receptor Potential 1 (TRPML1) | Mucolipin-1 (Homo sapiens), Q9GZU1 | TRPML1-expressing cells, Ca2+ dye fluorescence, FDSS; host cell line not named in the record; reference of the full effect not given here | activation, % (concentration not given with the values) | 410,000 compounds, 0.12% hits | AID 624414, 2012; in the data active = activation above about 50%; inconclusive = about 30% to 50%; inactive = below about 30%; further: 0% is about no effect; the text of the record puts the active cut at 80%
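Agonist activity was taken from a 110 s kinetic Ca2+ dye read on the FDSS after pinning compounds onto TRPML1-DL cells. The cells were seeded at 1,500/well with Tet inducer, incubated about 16 h, then dye-loaded at room temperature.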
CtBP-E1A inh = qHTS Assay for Inhibitors of the CtBP/E1A Interaction | AlphaScreen GST-E1A/His-CtBP binding, 1536-well; stronger effect = lower value; control for the full effect not named in the record | activity change, % (concentration not given with the values) | CtBP / adenovirus E1A interaction (AlphaScreen) | 340,000 compounds, 0.49% hits; in the data active means activity change below about -65%; inconclusive means about -30% to -65%; inactive means above about -30%; further: on the % scale 0 is the no-effect control and ±100 the full control effect
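Homogeneous bead-based format: GST-tagged E1A captured on glutathione donor beads, His-tagged CtBP on nickel acceptor beads; compounds precede bead addition by 2 h at 37 °C.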
PINK1 expr mod = A Quantitative High throughput Screen to Identify Chemical Modulators of PINK1 Expression | PINK1 immunofluorescence, high-content cytometry, 24 h | Potency, µM (highest dose often 76.6 µM), for inactives: top-dose activation (PINK1 increase), usual class: activators | 410,000 compounds, 0.2% hits | AID 624263, 2012; active = well fitted activation curve with a large enough effect; inconclusive = small, poorly fitted or top-dose-only effect; inactive = flat fitted curve, though single readings scatter; cell line not stated here;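 further: potency means the concentration at half of the fitted maximal effect; % of control where 0% means no effect; nearly all actives have a fitted effect of over 65% in size; a mitochondrial uncoupler was the plate control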
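Compound titrations (5 concentrations, 24 h) on a stable cell line; DMSO and CCCP controls. Endpoint: fixed-cell PINK1 immunofluorescence with mitochondrial, cell and nuclear markers, scanned by microplate cytometer.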
Numbers without * were called inactive; ? = inconclusive; . = not tested or not shown; & = joins results of further samples; [ ] = dose if it differs, or a comment.

Results follow in this order: PINK1 expr mod, CtBP-E1A inh, TRPML1 blocker, Six1-Eya2 inh, D2 ag, TRPML1 agonist
1	CCN(CC(=O)Nc1ccc(NC(C)=O)cc1)c1ccc(C(F)(F)F)cn1
 : 0.5%, -9, 4, 14, 0.0, 0.1
2	O=C(c1ccc(N2CCCC2=O)cc1)N1CCCCCC1
 : 0.8%, -1, 16, 2, -0.6, 0.5
3	COc1ccccc1-c1nn(-c2ccccc2)cc1C(=O)NC1CC1
 : 0.5%, ., -11, 6, -2.5, -0.3
4	CCOC(=O)C1C(=O)NC(N2CCN(Cc3ccccc3)CC2)=NC1c1ccccc1 (stereo not drawn)
 : 4.2%[38.3 µM], -4, -27, -14, -3.3, 1.6
5	CC(C)CNS(=O)(=O)c1ccc(CCC(=O)N2CCN(c3ccccc3)CC2)cc1
 : -2.2%, 4, 8, 6, 5.6, 2.9
6	O=C(Nc1ccc(Oc2ccc(C(=O)O)c(C(=O)O)c2)cc1)c1cccs1
 : 0.5%, -12, -8, 3, -2.9, -0.2
7	CCOC(=O)Cn1nc(C)c(NC(=O)COc2ccccc2[N+](=O)[O-])c1C
 : -0.1%, -7, 47, 3, -4.9, -0.8
8	CC(C)CNc1nc(N)c([N+](=O)[O-])c(NC2CCCCC2)n1
 : -1.8%, 7, 5, 5, -7.6, 2.1
9	CC(=O)Oc1ccc(C(=O)[C@H]2[C@H]3C(=O)N(c4ccc5ccccc5c4)C(=O)[C@H]3[C@@H]3C=CC=NN32)cc1
 : 0.4%, 0, 38, ?, 2.0, 0.7
10	COc1ccc(C(=O)N(Cc2nc(-c3ccc(C)cc3)no2)C2CCCCC2)cc1OC
 : -5.1%[38.3 µM], 9, 0, -11, -1.9, 1.2
11	O=C(NCc1ccccc1Cl)c1ccc(-n2cnc3cccnc32)cc1
 : -0.9%, ., 40, ., ., 0.7
12	Nc1nc(SCC(=O)Nc2ccc(Oc3ccccc3)cc2)n[nH]1
 : 0.1%, -3, 10, 2, 1.2, 2.2
13	CC(C)Cc1ccc(S(=O)(=O)N2CCC(c3ccncc3)CC2)cc1
 : -0.1%, ., 19, ., ., 2.2
14	C=CCSc1nnc(-c2c[nH]c3ccccc23)n1CCOC
 : -3.7%[38.3 µM], 6, 8, 6, -1.4, 0.1
15	Cc1cccc(NC(=O)c2cnc3n(c2=O)CCS3)c1
 : -0.5%[38.3 µM], 6, 0, 2, -1.2, 0.4

Results follow in this order: PINK1 expr mod, CtBP-E1A inh, TRPML1 blocker, Six1-Eya2 inh, D2 ag, TRPML1 agonist
16	CC(C)(C)C1CCc2c(sc(NC(=O)c3ccccc3F)c2C(=O)NCc2ccco2)C1 (stereo not drawn)
 : -0.1%, ., 1, ., ., -0.1
17	CN(C)CCCn1c2c(c(SCC(=O)Nc3ccc4c(c3)OCO4)nc1=O)CCC2
 : -2.1%, 3, -3, -11, -4.2, -0.3
18	CCOc1ccccc1CN1CCN(Cc2cn(C)nc2-c2ccccc2)CC1CCO (stereo not drawn)
 : -0.7%, -9, 9, 0, -3.1, -0.2
19	COc1ccc(COC[C@H](C)[C@H](O)[C@@H](C)[C@H]2OC(=O)[C@@H]2C)cc1
 : 1.3%, 0, 5&10, 8, 2.1, -0.3&1.4
20	CC(C)C[C@H]1CNC(=O)C(=O)N1CC1CCN(CCc2ccc(-c3ccccc3)cc2)CC1
 : 4.0%, 0, -2, -1, -1.5, -0.2
21	Clc1ccc2nc(CN3CCCCC3)cn2c1
 : -0.1%[38.3 µM], 6, -11, -1, -3.7, 1.5
22	CCN(CC)Cc1oc(-c2ccccc2)cc1C(=O)O
 : 0.3%, 5, -7, 6, -3.3, 0.6
23	Cc1nn(C(C)C(=O)NC2CCCCCC2)c(=O)c2nn(-c3ccccc3)c(C)c12 (stereo not drawn)
 : 0.4%, 1, 10, 3, -4.3, -1.1
24	CC1=C(C(=O)Nc2ccc(C)cc2)C(c2ccc(Cl)cc2)n2nnnc2N1 (stereo not drawn)
 : 10%, ., 3, ., ., 3.3
25	COC(=O)c1sccc1NC(=O)COc1cccc(C)c1
 : 5.7%, 17, -12, 0, -2.8, 1.1
26	CC(C(=O)Nc1ccc(F)c(F)c1)N1CCN(C)CC1 (stereo not drawn)
 : 2.5%, -2, 4, 11, -4.1, -0.2
27	CCN(CC)P(=O)(Nc1ccc([N+](=O)[O-])cc1)c1c(C)nn(CCC#N)c1NC(=O)c1ccc(Cl)cc1 (stereo not drawn)
 : -1.1%, -2, -3, 2, 2.1, 0.0
28	N#C/C(=C\c1ccc(O)cc1)C(=O)NCc1cccc(Cl)c1
 : 0.7%, -1, ., -12, -1.3, .
29	COc1ccc(/C=N/NC(=O)c2ccccc2NC(=O)c2ccco2)c(OC)c1
 : 9.7%, -20, 22, -20, 5.1, -0.7
30	COc1cc([N+](=O)[O-])ccc1NC(=O)NCc1cccnc1
 : -1.4%, 0, -7, -1, -7.4, -0.6

Results follow in this order: PINK1 expr mod, CtBP-E1A inh, TRPML1 blocker, Six1-Eya2 inh, D2 ag, TRPML1 agonist
31	O=c1oc2ccc(F)cc2cc1-c1nc(-c2cccs2)no1
 : 2.2%, ., 0, ., ., -0.4
32	COc1ccc(C(=O)NC2=NCCS2)cc1S(=O)(=O)N1CCCCC1C (stereo not drawn)
 : -0.3%, ., 19, -2, -5.6, 3.2
33	CCC(Oc1ccccc1)C(=O)Nc1nc2c(s1)C(=O)CC(C)(C)C2 (stereo not drawn)
 : 4.2%, 6, 2, -2, 1.0, 1.0
34	Cn1c(SCC(N)=O)nnc1C1CCN(C(=O)NCc2ccccc2)CC1
 : -0.4%, 4, -1, 3, -2.4, -0.5
35	COC(=O)N(C)C[C@@H]1OCc2cnnn2CCCC(=O)N([C@@H](C)CO)C[C@H]1C
 : 0.9%, -1, 1, 9, -2.1, 0.0
36	COc1ccc(NC(=O)/C=C/c2ccc(OC)c(OC)c2)cn1
 : -1.0%, -4, 16, -5, -2.3, 0.1
37	COc1cc(OC)cc(C(=O)N[C@H](C(=O)NNC(=O)c2ccc(Br)cc2)C(C)C)c1
 : 0.6%, -1, 7, 4, 1.3, -1.1
38	CCCCC(CC)CNS(=O)(=O)c1ccc2c(c1)CCN2C(=O)CCC(=O)O (stereo not drawn)
 : 4.2%[38.3 µM], 2, -21, 0, -3.6, -0.3
39	Cc1ccc(NC(=O)Cc2csc(C)n2)c(C)c1
 : 1.4%, ., 6, ., ., 1.9
40	CN(C)CCCNC(=O)c1cc(C(=O)c2ccccc2)c[nH]1
 : 0.3%, -23, 2, -11, 1.0, 0.3
41	Cn1c(C(=O)O)ccc1S(=O)(=O)N1CCCCCC1
 : -0.6%, -1, 23, 10, -2.6, -0.4
42	Cn1c(=O)c(C(=O)NCC2CCCO2)c(O)c2ccccc21 (stereo not drawn)
 : 0.5%, -3, -7, 3, -4.5, 1.8
43	CN(C)S(=O)(=O)c1ccc(C(=O)Nc2nnc(-c3cccs3)o2)cc1
 : 0.3%, ., -2, -14, -28, 0.5
44	CN(C)CCOCCOc1ccc(Cl)cc1C(C)(C)C
 : -1.6%, 9, 17, 21, -5.2, 4.2
45	COc1cc(C(=O)NCC(=O)N/N=C(\C)Cc2ccccc2)cc(OC)c1OC
 : -0.1%, 4, -4, 1, 2.0, -0.4

The list goes on, overlapping the part above by 2 compounds.
Results follow in this order: PINK1 expr mod, CtBP-E1A inh, TRPML1 blocker, Six1-Eya2 inh, D2 ag, TRPML1 agonist
44	CN(C)CCOCCOc1ccc(Cl)cc1C(C)(C)C
 : -1.6%, 9, 17, 21, -5.2, 4.2
45	COc1cc(C(=O)NCC(=O)N/N=C(\C)Cc2ccccc2)cc(OC)c1OC
 : -0.1%, 4, -4, 1, 2.0, -0.4
46	O=C(NC1CCCCCC1)C1c2ccccc2C(=O)N1CCCN1CCOCC1 (stereo not drawn)
 : ?, 10, 7, 0, -4.5, -0.7
47	Cc1noc2ncnc(Oc3ccccc3Cl)c12
 : -0.6%, ., 19, 0, ?, 0.8
48	O=C(Nc1ccn(Cc2ccccc2F)n1)c1ccc(COc2ccc(Br)cc2)cc1
 : ?, 0, 5, 1, -4.9, 0.4
49	Cc1ccc(NC(=O)C2CC(=O)N(c3ccc4c(c3)OCCO4)C2)cc1S(=O)(=O)N1CCCCCC1 (stereo not drawn)
 : 7.7%, -5, -20, -6, -1.7, 3.4
50	Cc1ccc(OC(C)C(=O)Nc2ccc(Cl)cn2)c([N+](=O)[O-])n1 (stereo not drawn)
 : 0.6%, 5, 4, 5, 1.5, 0.3
51	Cc1cccc(-c2c3c(=O)n(C)c(=O)n(C)c3cn2-c2ccccc2O)c1
 : 3.2%, -3, 35, 2, -5.2, 1.1
52	CCS(=O)(=O)c1ccc2oc(SCC(=O)NC3CCCC(C)C3C)nc2c1 (stereo not drawn)
 : -0.3%, 7, -7, 6, -4.6, -1.0
53	c1ccc2sc(NN=C3CCCCCC3)nc2c1
 : ?, 0, 10, -1, -1.5, 0.8
54	NS(=O)(=O)c1ccc(N=Nc2c(-c3ccccc3)[nH]n(-c3nc(-c4ccccc4)cs3)c2=O)cc1
 : -3.2%, -11, -6, -8, -3.9, 0.8
55	O=C(NCCCN1CCCC1=O)C1CCN(S(=O)(=O)c2ccc(F)cc2)CC1
 : -0.5%, 11, -3, 4, 0.7, -0.2
56	COC1=CC(=Cc2c(N)n3nc(CC(=O)N4CCOCC4)sc3nc2=O)C=C(OC)C1=O
 : 4.8%, -7, -11, -13, -3.0, 6.5
57	CCCc1nc2oc3c(=O)[nH]cnc3c2c2c1COC(C)(C)C2
 : 1.0%, -6, 25, 1, -0.3, 0.5

Single records, as listed above.
Entry for O=C(NC1CCCCCC1)C1c2ccccc2C(=O)N1CCCN1CCOCC1 (stereo not drawn) = PINK1 expr mod = ?; CtBP-E1A inh = 10; TRPML1 blocker = 7; Six1-Eya2 inh = 0; D2 ag = -4.5; TRPML1 agonist = -0.7
Entry for Cc1noc2ncnc(Oc3ccccc3Cl)c12 = PINK1 expr mod = -0.6%; CtBP-E1A inh = .; TRPML1 blocker = 19; Six1-Eya2 inh = 0; D2 ag = ?; TRPML1 agonist = 0.8

Screening results from PubChem.
